Assay outcomes deposited in PubChem BioAssay by several laboratories.
RecA intein inh: Mtb RecA intein splicing inhibition; 290,000 compounds, 0.75% hits; AID 2221; inhibition, %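 (about 9 µM by stock and volumes)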; P9WHJ3; cell-free RecA intein splicing, fluorescence; in the data active means inhibition above about 30%; inconclusive means no clear call, values can overlap the other calls;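 further: 0% = vehicle wells and 100% = reference inhibitor control wells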
Target sequence (P9WHJ3 whole entry, looked up): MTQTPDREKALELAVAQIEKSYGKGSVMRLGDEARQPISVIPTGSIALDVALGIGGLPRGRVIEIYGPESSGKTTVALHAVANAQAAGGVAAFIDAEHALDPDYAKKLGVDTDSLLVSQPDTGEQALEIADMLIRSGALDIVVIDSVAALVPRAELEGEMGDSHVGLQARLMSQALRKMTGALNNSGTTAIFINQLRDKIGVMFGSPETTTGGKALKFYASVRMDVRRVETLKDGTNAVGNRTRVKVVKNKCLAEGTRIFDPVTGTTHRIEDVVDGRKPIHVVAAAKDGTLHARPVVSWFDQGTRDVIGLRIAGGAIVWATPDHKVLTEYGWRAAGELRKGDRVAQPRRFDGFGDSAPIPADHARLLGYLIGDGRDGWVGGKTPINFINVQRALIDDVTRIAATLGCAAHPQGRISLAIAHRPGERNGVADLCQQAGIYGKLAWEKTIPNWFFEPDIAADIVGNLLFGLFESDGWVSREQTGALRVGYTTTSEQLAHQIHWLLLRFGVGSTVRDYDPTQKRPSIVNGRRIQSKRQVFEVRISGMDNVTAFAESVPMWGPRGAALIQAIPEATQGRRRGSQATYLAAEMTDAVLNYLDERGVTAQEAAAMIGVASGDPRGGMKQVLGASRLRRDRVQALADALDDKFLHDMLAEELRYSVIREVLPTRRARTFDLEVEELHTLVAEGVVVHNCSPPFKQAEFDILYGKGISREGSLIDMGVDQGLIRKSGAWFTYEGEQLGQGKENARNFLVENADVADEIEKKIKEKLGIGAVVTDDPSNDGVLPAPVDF
Arbovirus inh: antivirals against arbovirus infection; arbovirus infection cell-based antiviral screen; inhibition, % at 10 µM; 200,000 compounds, 0.37% hits;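 active means inhibition from about 30%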;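 further: bluetongue infection of BSR cells; cell survival read as ATP light after 72 h; 0% = infected wells without compound and 100% = uninfected wells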
YopH PTP inh: blocks Yersinia enterocolitica YopH tyrosine phosphatase; inhibition, %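 (about 10 µM by stock and volumes)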; 140,000 compounds, 0.16% hits; fluorescence Ex485/Em525;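 active means inhibition of 50% or more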;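 further: controls were vehicle for no effect and minimum signal wells for full effect; inactives centre near -20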
Mtb betalactam: beta-lactam sensitization of Mtb H37Rv. M. tuberculosis H37Rv growth with meropenem, percent inhibition; hits of this screen are not shown here. 330,000 compounds, 0.27% hits. inhibition, % at 25 µM;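 active means about 74% or more and at least 40 points above the plate without the antibiotic, then above 30% in a dose series; inconclusive means first-round hits that could not be retested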;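 further: growth measured after seven days incubation then overnight dye step; 0% = bacteria only wells and 100% = bacteria with antibiotic; twin plates without the antibiotic show which effects depend on it; some results filed as inactive read as strong as hits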
Mtb growth: M. tuberculosis H37Rv growth inhibitors, H37Rv strain (AID 1626); M. tuberculosis H37Rv growth inhibition; higher % means a stronger effect; one-dose inhibition, % at 10 µM; IC50 in µM for titrated hits; 220,000 compounds, 0.95% hits;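 active means confirmed in a dose series; inconclusive means inhibition above 80% but not taken into the dose series; inactive means below 80% or under 30% at every dose of the series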;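 further: bacteria incubated seven days before Alamar blue readout; 0% = bacteria only wells and 100% = bacteria with antibiotic wells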
* = called active by the depositor. Some of the compounds tested (hit frequency here may not be typical).

`C=CCN1C(=O)NC(=O)/C(=C/c2cc3c4c(c2)CCCN4CCC3)C1=O` gave RecA intein inh -9.0, Arbovirus inh 6, YopH PTP inh 15, Mtb betalactam 11 and Mtb growth 6%.
Screening CCn1c(CCC(=O)Nc2nc3c(s2)CCCC3)nc2cc(S(=O)(=O)N(C)C)ccc21 returned RecA intein inh -1.7, Arbovirus inh -12, YopH PTP inh -15, Mtb betalactam -4 and Mtb growth -1%.
`CCCCC1=CC2=CC(=O)C(C)(OC(=O)CC)C(=O)C2=CN1CCOC` (configuration not stated) gave RecA intein inh -0.1, Mtb betalactam -4 and Mtb growth -6%.
Screening Cc1cccc(C(=O)OCC(=O)c2c(N)n(CC(C)C)c(=O)n(C)c2=O)c1O returned RecA intein inh -1.2 and Mtb betalactam -10.
O=C(COc1ccc(Cl)cc1)Nc1c(-c2cccs2)nc2ccccn12 was read as RecA intein inh -3.3, Arbovirus inh -10, YopH PTP inh -21, Mtb betalactam 4 and Mtb growth -6%.
CC(=O)N1C(=O)C2(C(C#N)=C(N)Oc3n[nH]c(-c4ccccn4)c32)c2ccccc21 (configuration not stated) was read as RecA intein inh 1.5, Arbovirus inh 5, YopH PTP inh -36 and Mtb betalactam -8.
`Cc1sc(-c2ccccn2)nc1OC(=O)c1ccc(Cl)cc1` gave RecA intein inh 21, Arbovirus inh 2, YopH PTP inh -22, Mtb betalactam 0 and Mtb growth -6%.
Screening O=C(CCl)Nc1cc(SCC(O)CO)cc([N+](=O)[O-])c1 (configuration not stated) returned RecA intein inh 16, Arbovirus inh -1 and Mtb growth -3%.
Cc1nnc(SCC(=O)Nc2cccc(S(=O)(=O)NC3=NCCCCC3)c2)n1Cc1ccccc1 was read as RecA intein inh 1.3, Arbovirus inh -2, Mtb betalactam -1 and Mtb growth 2%.
`Cc1ccccc1C(=O)NCc1nnc(SCC(=O)N2c3ccccc3Sc3ccccc32)n1C` gave RecA intein inh 8.5, Arbovirus inh 0, YopH PTP inh -5, Mtb betalactam -6 and Mtb growth -2%.
`O=S(=O)(c1ccc2nc(N3CCN(c4ccc(F)cc4)CC3)ccc2c1)N1CCCCC1` gave RecA intein inh 0.6 and Mtb betalactam -13.
COc1cccc(C(=O)OCC(=O)NCCNC(=O)COC(=O)c2cccc(OC)c2OC)c1OC was read as RecA intein inh -1.8 and Mtb betalactam inconclusive.
CC(C)c1csc2nc3n(c(=O)c12)CCCCC3 was read as RecA intein inh -1.5, Arbovirus inh -1, Mtb betalactam -6 and Mtb growth 8%.
CC(C)CNC(=O)c1ccccc1NC(=O)Nc1ccccc1 was read as RecA intein inh -2.6, Arbovirus inh -1, YopH PTP inh -24, Mtb betalactam -13 and Mtb growth -5%.
Screening C/C(=N\NC(=O)c1cccnc1)c1cc(C)oc1C returned RecA intein inh -1.9, Arbovirus inh 1, YopH PTP inh -29, Mtb betalactam -2 and Mtb growth 3%.
CC1CCCC(NC(=O)/C=C/c2c(F)cccc2Cl)C1C (configuration not stated) was read as RecA intein inh 0.6 and Mtb betalactam 100.
For CCOc1cc(/C=N/n2c(C)nc3ccccc3c2=O)ccc1O the results were RecA intein inh 0.8 and Mtb betalactam 0.
`Cc1ccc(OCC(=O)Nc2ccc(S(=O)(=O)N3CCOCC3)cc2)c(Br)c1` gave RecA intein inh -2.1 and Mtb betalactam 0.
Screening COc1ccc(C2=NS(=O)(=O)N(C)C(C(=O)NCc3ccccc3)=C2)cc1OC returned RecA intein inh 3.7 and Mtb betalactam 0.
Screening COc1ccc(/C(O)=C2\C(=O)C(=O)N(Cc3ccco3)C2c2ccc(OC)cc2OC)cc1 (configuration not stated) returned RecA intein inh -2.5, Arbovirus inh 1, YopH PTP inh -31, Mtb betalactam -3 and Mtb growth -2%.
For O=C(CCCC(=O)N/N=C/c1ccccc1C(=O)O)N/N=C/c1ccccc1C(=O)O the results were RecA intein inh -1.4, Mtb betalactam -3 and Mtb growth -14%.
Cc1ccc(S(=O)(=O)c2cccc(S(=O)(=O)N3CCOCC3)c2)cc1S(=O)(=O)N1CCOCC1 was read as Arbovirus inh -1, YopH PTP inh 14, Mtb betalactam -1 and Mtb growth -12%.
For CCC(C)NC(=O)COC(=O)c1csc2c1CCCC2 (configuration not stated) the results were RecA intein inh 1.1, Arbovirus inh 5, YopH PTP inh -21, Mtb betalactam 4 and Mtb growth -10%.
Cc1ccc(CCNC(=O)c2ccc(CS(=O)(=O)c3ccccc3C)o2)cc1 was read as RecA intein inh 3.6 and Mtb betalactam 1.
CC(=O)Nc1ccc(S(=O)(=O)N=S(C)(C)=O)cc1 was read as RecA intein inh -0.1, Arbovirus inh 2, YopH PTP inh -24, Mtb betalactam 1 and Mtb growth -8%.
For CCOC(=O)N1CCN(CC(O)COCCC23CC4CC(CC(C4)C2)C3)CC1 (configuration not stated) the results were RecA intein inh 7.1, Arbovirus inh -19, YopH PTP inh -15, Mtb betalactam 2 and Mtb growth 7%.
CCCc1nnc(NC(=O)C2CCN(C(=O)c3ccco3)CC2)s1 was read as RecA intein inh -0.6 and Mtb betalactam -7.
For CCOc1ccccc1C(=O)NCC(=O)N(C)Cc1ccccc1C the results were RecA intein inh 1.7 and Mtb betalactam -2.
`Cc1nc2cc(N3CCN(C)CC3)c(NC(=O)Cc3ccccc3)cc2c(=O)n1Cc1ccccc1` gave RecA intein inh 3.6, Arbovirus inh -10, YopH PTP inh -27, Mtb betalactam 48 and Mtb growth 5%.
Cc1cccc(NC(=O)c2cccs2)n1 was read as RecA intein inh -1.0, Arbovirus inh 4, YopH PTP inh -8, Mtb betalactam -12 and Mtb growth -1%.
CCc1nc(Nc2ccc(OC)c(OC)c2)c2nnn(Cc3ccccc3Cl)c2n1 was read as RecA intein inh -1.4, Arbovirus inh 16, YopH PTP inh -21, Mtb betalactam 42 and Mtb growth 13%.
For COc1cccc(-c2nnc3sc(-c4ccccc4)nn23)c1 the results were RecA intein inh -1.9, Arbovirus inh -15, YopH PTP inh -28, Mtb betalactam 44 and Mtb growth -6%.
`Cc1c(CN2CCN(CC(C)(C)C)C(CCO)C2)[nH]c2ccccc12` (configuration not stated) gave RecA intein inh 0.4 and Mtb betalactam -1.
`COc1ccc2cc1Oc1ccc(cc1)C[C@H]1c3c(cc4c(c3Oc3cc5c(cc3OC)CCN(C)[C@@H]5C2)OCO4)CCN1C` gave RecA intein inh -1.6, Mtb betalactam 6 and Mtb growth -1%.
Screening COC(=O)c1c(-c2ccc(F)cc2)csc1NC(=O)C1CCCO1 (configuration not stated) returned RecA intein inh 15, Arbovirus inh -5, Mtb betalactam 3 and Mtb growth 9%.
Brc1ccccc1/C=N/N1CCCCC1 was read as RecA intein inh -5.4 and Mtb betalactam 2.
NC(=O)C1(N2CCCCC2)CCN(S(=O)(=O)c2cc(Cl)sc2Cl)CC1 was read as RecA intein inh 7.0, Mtb betalactam -7 and Mtb growth -7%.
`O=C(c1ccc(C(F)(F)F)cc1)C1CCCN(C(=O)Cn2cncn2)C1` (configuration not stated) gave RecA intein inh 0.6 and Mtb betalactam 0.
`c1csc(CNCCN2CCOCC2)c1` gave RecA intein inh -0.2, Arbovirus inh 2, YopH PTP inh -18, Mtb betalactam 1 and Mtb growth -1%.
Screening COc1ccc(-c2nn(-c3ccccc3)cc2/C=N/Nc2ccccn2)cc1OC returned RecA intein inh 3.8, Arbovirus inh 0, YopH PTP inh -8, Mtb betalactam 71 and Mtb growth 14%.
Screening CCOC(=O)C1=C(CC)Nc2ccccc2N/C1=N\S(=O)(=O)c1cc(Br)ccc1Br returned RecA intein inh 12, Arbovirus inh 2 and Mtb growth 1%.
`C=CCNS(=O)(=O)c1ccc(N2C(=O)c3ccccc3C2=O)cc1` gave RecA intein inh -0.9, Arbovirus inh -1, Mtb betalactam -8 and Mtb growth -2%.
For O=C(O)COCC(=O)Nc1ccc(-n2nc(C(F)(F)F)cc2-c2cccs2)cc1 the results were RecA intein inh 1.4, Mtb betalactam 11 and Mtb growth 4%.
For CCCN1CCN(C(=O)c2ccccc2-c2nc3ccccc3s2)CC1 the results were RecA intein inh 4.4, Arbovirus inh -1, Mtb betalactam -11 and Mtb growth 2%.
`CC(C)C(CCNC1CCN(C)CC1)c1ccc(Cl)cc1` (configuration not stated) gave RecA intein inh -0.6 and Mtb betalactam -6.
`CC(C)Cn1c(SCC(=O)NC(=O)NC2CCCC2)nc2ccccc21` gave RecA intein inh -3.3, Arbovirus inh -2, YopH PTP inh -14, Mtb betalactam 9 and Mtb growth 3%.
For CCN1CCN(c2ccc(S(=O)(=O)N3CCOCC3)cc2NC(=O)c2sccc2C)CC1 the results were RecA intein inh -2.7 and Mtb betalactam -4.
Screening Cc1cc(C)nc(Nc2ccc(C(=O)O)cc2)n1 returned RecA intein inh -0.2, Arbovirus inh 4, YopH PTP inh -1, Mtb betalactam -3 and Mtb growth -3%.
For COCCCNC(=O)COC(=O)c1ccc(-c2nc3ccccc3s2)s1 the results were RecA intein inh -6.5, Arbovirus inh -1, Mtb betalactam 98 and Mtb growth 14µM*.
CCC(C)c1ccc(NC(=S)NCCn2cc(Cl)cn2)cc1 (configuration not stated) was read as RecA intein inh 6.5, Arbovirus inh 2, Mtb betalactam 86 and Mtb growth 28%.
For Cc1csc(NC(=O)C2CCN(C(=O)CSc3nnc(C)n3Cc3ccccc3)CC2)n1 the results were RecA intein inh -3.0, Arbovirus inh -3, YopH PTP inh -41, Mtb betalactam -8 and Mtb growth -7%.
`FC(F)(F)c1ccc(/C=N/n2c(C3CCCCC3)n[nH]c2=S)cc1` gave RecA intein inh 4.1 and Mtb betalactam inconclusive.
Screening CN(C)c1ccc(CN(CC2CCCO2)C(=O)c2cccs2)cc1 (configuration not stated) returned RecA intein inh 0.4 and Mtb betalactam -1.
CC(=O)N1CCc2c(sc(NC(=O)Cc3ccccc3)c2C#N)C1 was read as RecA intein inh -0.7 and Mtb betalactam 4.
COc1ccccc1N=C1SCC(=O)N1c1ccccc1OC was read as RecA intein inh 5.3, Arbovirus inh 3, YopH PTP inh 2, Mtb betalactam 6 and Mtb growth 3%.
COC(=O)CSC1=C(C#N)C(c2sccc2C)CC(=O)N1 (configuration not stated) was read as RecA intein inh -1.6, Arbovirus inh 1, YopH PTP inh -17, Mtb betalactam -2 and Mtb growth -6%.
`O=C(OCC(=O)N1CCc2ccccc21)c1cccnc1` gave RecA intein inh 1.5, Arbovirus inh 2, YopH PTP inh -25, Mtb betalactam 6 and Mtb growth -5%.
For Cc1ccc(S(=O)(=O)NC(Cc2ccc(Cl)cc2)C(=O)O)cc1 (configuration not stated) the results were RecA intein inh -0.9 and Mtb betalactam -1.
For O=c1c(/C=N/Nc2ccccc2)c(Sc2nnnn2-c2ccccc2)nc2ccccn12 the results were Arbovirus inh -33 and YopH PTP inh -4.
For CCn1c(SCC(=O)Nc2ccc3c(c2)OCCO3)nnc1-c1ccncc1 the results were RecA intein inh -1.2 and Mtb betalactam 6.

Pulled by structure from above, two records:
For O=C(O)COCC(=O)Nc1ccc(-n2nc(C(F)(F)F)cc2-c2cccs2)cc1 the results were RecA intein inh 1.4, Mtb betalactam 11 and Mtb growth 4%.
`O=C(OCC(=O)N1CCc2ccccc21)c1cccnc1` gave RecA intein inh 1.5, Arbovirus inh 2, YopH PTP inh -25, Mtb betalactam 6 and Mtb growth -5%.

(list continues)
CSc1cccc(NC(=O)CN(c2cccc(C)c2)S(C)(=O)=O)c1 was read as RecA intein inh -0.1, Arbovirus inh 7, YopH PTP inh -14, Mtb betalactam -2 and Mtb growth -9%.
OC(c1cc(-c2ccc(Cl)cc2)nc2ccccc12)C1CCCCN1 (configuration not stated) was read as RecA intein inh 6.5, Mtb betalactam 100 and Mtb growth 4.5µM*.
For O=C(Nc1cnc2ccccc2c1)C1COc2ccccc2O1 (configuration not stated) the results were RecA intein inh -1.4, Arbovirus inh 14, YopH PTP inh -44, Mtb betalactam 23 and Mtb growth 50%.
`CN(CCOc1ccccc1)C(=O)c1ccc(OC2CCN(C(=O)C3CC3)CC2)cc1` gave RecA intein inh 0.2, Arbovirus inh 3, Mtb betalactam -3 and Mtb growth -10%.
Cc1occc(=O)c1OCc1ccc(F)cc1 was read as RecA intein inh -1.8 and Mtb betalactam 1.

Quoted from the listing, 5 compounds:
CSc1cccc(NC(=O)CN(c2cccc(C)c2)S(C)(=O)=O)c1 was read as RecA intein inh -0.1, Arbovirus inh 7, YopH PTP inh -14, Mtb betalactam -2 and Mtb growth -9%.
OC(c1cc(-c2ccc(Cl)cc2)nc2ccccc12)C1CCCCN1 (configuration not stated) was read as RecA intein inh 6.5, Mtb betalactam 100 and Mtb growth 4.5µM*.
For O=C(Nc1cnc2ccccc2c1)C1COc2ccccc2O1 (configuration not stated) the results were RecA intein inh -1.4, Arbovirus inh 14, YopH PTP inh -44, Mtb betalactam 23 and Mtb growth 50%.
`CN(CCOc1ccccc1)C(=O)c1ccc(OC2CCN(C(=O)C3CC3)CC2)cc1` gave RecA intein inh 0.2, Arbovirus inh 3, Mtb betalactam -3 and Mtb growth -10%.
Cc1occc(=O)c1OCc1ccc(F)cc1 was read as RecA intein inh -1.8 and Mtb betalactam 1.
